High-throughput results as filed in PubChem BioAssay.
PD-1 reversal = reversal of PD-1 mediated T-cell inhibition. primary human CD4 T cells, PD-L1 beads, CellTiter-Glo 96 h. activation, % (no concentration beside the values). 29,000 tested, under 10 active. AID 2316;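 active = replicate mean of 50% or more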;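 note: 0% = median vehicle wells and 100% = positive control; 100 nL library stock added to about 50 µL; numbers are from one replicate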
Shh pathway inh = Sonic Hedgehog pathway inhibition; 2.1% of 22,000 active; Shh-LIGHT2 Gli-luciferase reporter, 30 h; inhibition, % (test concentration not listed);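 active = replicate mean of 65% or more; inconclusive = mean lower but half the replicates past it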;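 note: pathway switched on by Shh-conditioned medium diluted 1 in 25 in low serum; 100 nL library stock added to about 40 µL; 0% = median of neutral wells and 100% = positive control level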
MITF inhib = MITF inhibition. TRPM1 promoter luciferase, luminescence, 24 h. inhibition, % (test concentration not listed). 0.28% of 37,000 active. AID 2240;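 active = most replicates at 85% or more, or half of them and the mean; inconclusive = half reach 85% but not the mean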;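 note: human melanocyte line stably carrying TRPM1 promoter luciferase reporter; 0% = vehicle wells and 100% = a positive control; the first replicate is given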
YB-1 expr inh = YB-1 expression inhibition | U2OS, qRT-PCR YB-1 vs CDIP delta delta Cp, 16 h; hits give high values; zero = DMSO, each unit about twofold | delta delta Cp (YB-1 minus CDIP) (test concentration not listed) | 0.37% of 30,000 active;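 active = delta delta Cp rounded down to an integer at or above 3, about 3 SD of DMSO wells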;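 note: higher means less YB-1 transcript or more CDIP transcript relative to DMSO; stock transfer was 100 nL into about 100 µL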
* marks the source's active call; other numbers are inactive results; ? = inconclusive; . = no result given.

SMILES	PD-1 reversal	Shh pathway inh	MITF inhib	YB-1 expr inh
COc1ccc(S(=O)(=O)Nc2ccc3c(c2)CC(=O)N([C@H](C)CO)C[C@@H](C)[C@@H](CN(C)C(=O)Nc2ccc(F)cc2)O3)cc1	-0.1	25.5	0.5	-0.392
C[C@H](CO)N1C[C@H](C)[C@H](CN(C)C(=O)Nc2ccc3c(c2)OCO3)Oc2ccc(NC(=O)CCC(F)(F)F)cc2C1=O	-0.2	-19.6	-9.9	-0.0611
NC(=O)C1CCN(C(=O)CSc2nnnn2-c2ccccc2)CC1	1.9	.	-11.7	.
COC(=O)c1cc(OC)c(OC)cc1NC(=O)CSc1nc2ccccc2o1	1.3	.	-90.6	.
C[C@@H]1CN([C@H](C)CO)C(=O)c2cccc(N(C)C)c2O[C@@H]1CN(C)Cc1ccc(-c2ccccc2)cc1	-0.3	-13.3	-6.9	0.0815
O=C1NC(=O)C(Cc2ccccc2)N1 (stereo not given)	0.7	.	-8.9	-0.904
COc1ccc(NC(=O)N(C)C[C@H]2Oc3c(NC(=O)Nc4ccccc4)cccc3C(=O)N([C@@H](C)CO)C[C@H]2C)cc1	0.6	-49.6	-0.9	-0.345
C[C@@H]1CN([C@H](C)CO)C(=O)Cc2cc(NC(=O)CCCCCC(=O)Nc3ccccc3N)ccc2O[C@@H]1CN(C)Cc1ccc(Cl)c(Cl)c1	-3.1	.	48.6	0.248
CCOC(=O)c1ccc2nc(C(F)(F)F)nc(N3CCCCC3)c2c1	-1.0	.	-9.3	0.827
CC(C)NC(=O)N(C)C[C@@H]1Oc2ccc(NC(=O)C3CC3)cc2C(=O)N([C@@H](C)CO)C[C@@H]1C	-1.1	.	-2.5	-0.195
Cc1ccc(OCC(=O)NCc2ccco2)cc1C	-3.1	.	-42.6	.
C[C@H]1CN([C@@H](C)CO)C(=O)c2cc(NC(=O)Nc3ccc4c(c3)OCO4)ccc2O[C@@H]1CN(C)Cc1ccc(-c2ccccc2)cc1	0.2	8.8	9.5	0.402
O=C(CN1C(=O)C2C3C=CC(C4CC34)C2C1=O)Nc1ccc(Oc2ccccc2)cc1 (stereo not given)	-1.8	.	46.4	.
C[C@@H]1CN([C@H](C)CO)C(=O)Cc2cc(NS(=O)(=O)c3ccc(F)cc3)ccc2O[C@@H]1CN(C)CC1CC1	0.7	.	-8.1	-0.103
CNC[C@@H]1Oc2ccc(NC(=O)CCCN(C)C)cc2C(=O)N([C@@H](C)CO)C[C@@H]1C	.	-25.1	-2.4	-0.208

Quoted at random: 6 entries already listed
SMILES	PD-1 reversal	Shh pathway inh	MITF inhib	YB-1 expr inh
CNC[C@@H]1Oc2ccc(NC(=O)CCCN(C)C)cc2C(=O)N([C@@H](C)CO)C[C@@H]1C	.	-25.1	-2.4	-0.208
C[C@@H]1CN([C@H](C)CO)C(=O)Cc2cc(NS(=O)(=O)c3ccc(F)cc3)ccc2O[C@@H]1CN(C)CC1CC1	0.7	.	-8.1	-0.103
Cc1ccc(OCC(=O)NCc2ccco2)cc1C	-3.1	.	-42.6	.
NC(=O)C1CCN(C(=O)CSc2nnnn2-c2ccccc2)CC1	1.9	.	-11.7	.
C[C@H](CO)N1C[C@H](C)[C@H](CN(C)C(=O)Nc2ccc3c(c2)OCO3)Oc2ccc(NC(=O)CCC(F)(F)F)cc2C1=O	-0.2	-19.6	-9.9	-0.0611
C[C@@H]1CN([C@H](C)CO)C(=O)c2cccc(N(C)C)c2O[C@@H]1CN(C)Cc1ccc(-c2ccccc2)cc1	-0.3	-13.3	-6.9	0.0815

Next section
SMILES	PD-1 reversal	Shh pathway inh	MITF inhib	YB-1 expr inh
C=C1C(=O)O[C@@H]2/C=C(/C)CC/C=C(/C=O)C[C@@H](OC(=O)CC(C)C)C12 (stereo not given in full)	.	2.0	.	-0.449
Cc1ccc(C)c(NC(=O)C(C)n2nc(C)c([N+](=O)[O-])c2C)c1 (stereo not given)	-2.0	.	1.0	.
CNC[C@H]1Oc2ccc(NC(=O)c3ccncc3)cc2CC(=O)N([C@@H](C)CO)C[C@@H]1C	-0.5	.	-9.8	-0.161
O=C(CC1(O)C(=O)N(Cc2ccc(Cl)cc2)c2ccc(Cl)cc21)c1ccc2c(c1)OCCO2 (stereo not given)	-2.0	.	28.6	.
Cc1noc(C)c1NC(=O)Nc1ccc2c(c1)C(=O)N([C@@H](C)CO)C[C@@H](C)[C@H](CN(C)S(=O)(=O)c1ccccc1)O2	0.1	.	-0.5	-0.193
COc1ccc(OC)c(NC(=O)COc2ccc3c(-c4ccccc4)cc(=O)oc3c2)c1	2.1	.	41.2	.
C[C@@H]1CN([C@@H](C)CO)C(=O)c2cccc(NS(C)(=O)=O)c2O[C@@H]1CN(C)S(=O)(=O)c1ccc(F)cc1	-1.1	-70.1	3.0	-0.512
c1cncc(-c2nn3c(C4COc5ccccc5O4)nnc3s2)c1 (stereo not given)	-1.3	.	-19.1	.
C[C@@H]1CN([C@@H](C)CO)C(=O)c2cccc(NC(=O)NC3CCCCC3)c2O[C@H]1CN(C)S(C)(=O)=O	0.7	-13.3	3.4	-0.385
C[C@@H]1CN([C@@H](C)CO)C(=O)c2cccc(NC(=O)Nc3ccc4c(c3)OCO4)c2O[C@H]1CN(C)S(=O)(=O)c1cn(C)cn1	0.5	-22.2	-7.5	0.0754
C[C@H](CO)N1C[C@H](C)[C@H](CN(C)S(=O)(=O)c2cccs2)Oc2ccc(NS(=O)(=O)c3cccs3)cc2C1=O	-2.4	28.9	-10.9	-0.078
O=C(O)C1Cc2ccccc2C1	2.7	-6.1	-13.9	0.803
C[C@@H]1CN([C@@H](C)CO)C(=O)c2cccc(NS(=O)(=O)c3cn(C)cn3)c2O[C@H]1CN(C)Cc1ccc2c(c1)OCO2	0.7	-17.5	8.2	-0.127
C[C@@H]1CN([C@H](C)CO)C(=O)c2cccc(NC(=O)Nc3ccccc3)c2O[C@@H]1CN(C)S(=O)(=O)c1ccc(F)cc1	0.7	0.0	-9.6	-0.118
CC(C)NC(=O)Nc1ccc2c(c1)C(=O)N([C@H](C)CO)C[C@@H](C)[C@@H](CN(C)S(=O)(=O)c1ccc(F)cc1)O2	.	?	-9.5	0.149
CNC[C@H]1Oc2c(NS(=O)(=O)c3cn(C)cn3)cccc2C(=O)N([C@@H](C)CO)C[C@@H]1C	.	8.8	-3.0	0.233
COc1c(CO)c(O)cc2c1C(=O)c1ccccc1C2=O	-1.2	3.4	16.2	0.306
COc1ccc(NC(=O)N(C)C[C@H]2Oc3c(NS(=O)(=O)c4cccs4)cccc3C(=O)N([C@H](C)CO)C[C@@H]2C)cc1	-1.9	-34.8	-6.7	-0.0318
C[C@H]1CN([C@@H](C)CO)C(=O)c2cc(NC(=O)Nc3cccc4ccccc34)ccc2O[C@H]1CN(C)S(=O)(=O)c1ccc(F)cc1	-1.3	35.8	12.1	0.096
C[C@@H]1CN([C@H](C)CO)C(=O)c2cccc(NC(=O)NC3CCCCC3)c2O[C@H]1CN(C)Cc1ccc(-c2ccccc2)cc1	-1.6	-11.4	20.4	-0.337
Cn1c(CN2CCOCC2)c(C#N)c2ccccc21	-0.6	-5.5	5.7	0.0559
Cc1ccc(/C(=C\CN2CCCC2)c2ccccn2)cc1	.	13.2	3.5	0.66
O=C(CN1CCOCC1)Nc1ccc(NC(=O)CN2CCOCC2)c(Cl)c1	1.1	.	-25.8	.
COc1ccc(NC(=O)Cn2c([N+](=O)[O-])cnc2C)c(OC)c1	0.7	.	11.4	.
C[C@H]1CN([C@@H](C)CO)C(=O)c2cccc(N(C)C)c2O[C@H]1CN(C)Cc1ccc(C(F)(F)F)cc1	-0.1	-7.1	-6.1	-0.488
COc1cccc2c1C(c1ccc3c(c1O)C(=O)CC(C)C3O)OC2=O (stereo not given)	0.8	1.3	-7.4	0.0847
C[C@@H]1CN([C@@H](C)CO)C(=O)c2cc(NC(=O)Cc3ccccc3)ccc2O[C@@H]1CN(C)S(=O)(=O)c1cccs1	-0.1	-17.1	-10.3	-0.106
C[C@@H]1CN([C@H](C)CO)C(=O)Cc2cc(N(C)C)ccc2O[C@H]1CN(C)C(=O)Nc1ccccc1	-0.1	-1.0	-11.1	-0.043
C[C@H]1CN([C@@H](C)CO)C(=O)c2cc(NS(=O)(=O)c3ccc(Cl)cc3)ccc2O[C@H]1CN(C)S(=O)(=O)c1ccccc1	1.0	.	-4.5	0.0986
COc1c(Cl)cc(C(=O)Nc2sc3c(c2C(=O)NCc2ccco2)CCC3)cc1Cl	-4.2	.	-48.8	.
COc1ccc(NC(=O)CCCN2C(=O)c3ccccc3C2=O)c(OC)c1	0.7	.	-41.6	.
CC1=COC(O[C@@H]2O[C@H](CO)[C@@H](O)[C@H](O)[C@H]2O)C2C1CC(O)C2CO (stereo not given in full)	.	-28.1	.	-0.367
C[C@H]1CN([C@@H](C)CO)C(=O)Cc2cc(NS(=O)(=O)c3cn(C)cn3)ccc2O[C@@H]1CN(C)CC1CCCCC1	-1.0	17.5	14.0	-0.015
Cc1ccc(OCC(=O)Nc2cc(-c3nc4cc(Cl)ccc4o3)ccc2C)c(C)c1	0.7	.	22.5	.
Cc1c(C(=O)Cc2c(O)c3ccccc3oc2=O)sc2nc(C(F)(F)F)nn12	0.0	18.9	23.1	-0.322
C[C@H](CO)N1C[C@H](C)[C@@H](CN(C)Cc2ccc(-c3ccccc3)cc2)Oc2c(NC(=O)Nc3ccc(C(F)(F)F)cc3)cccc2C1=O	.	-18.0	14.1	-0.21
COc1ccc(CC(CC(=O)O)C(=O)Nc2ccccc2)cc1 (stereo not given)	-0.2	-28.0	-16.9	-0.296
C[C@@H]1CCCCO[C@@H](CN(C)C(=O)NC2CCCCC2)[C@@H](C)CN([C@H](C)CO)C(=O)c2cc(NC(=O)Nc3ccccc3)ccc2O1	.	2.0	1.1	-0.546
O=C(c1c(O)c2ccc(Cl)cc2[nH]c1=O)C1CC1	0.0	-35.9	-13.0	0.0871
C[C@H](CO)N1C[C@H](C)[C@H](CN(C)S(=O)(=O)c2ccc(Cl)cc2)Oc2ccc(NC(=O)Cn3cnnn3)cc2C1=O	0.9	-43.6	4.4	-0.00717
C[C@H](CO)N1C[C@H](C)[C@H](CN(C)Cc2ccc(Oc3ccccc3)cc2)Oc2c(NC(=O)Nc3cccc4ccccc34)cccc2C1=O	-11.4	7.2	14.6	0.0342
Cc1ccc(C(=O)Oc2cc(C)cc(OC(=O)c3ccc(C)cc3)c2)cc1	-0.2	1.1	-3.4	0.226
C[C@@H]1CN([C@@H](C)CO)C(=O)Cc2cc(NC(=O)NC3CCCCC3)ccc2O[C@@H]1CN(C)S(C)(=O)=O	2.0	-18.4	-11.5	-0.594
Cc1noc(C)c1NC(=O)Nc1ccc2c(c1)CC(=O)N([C@@H](C)CO)C[C@H](C)[C@H](CN(C)C(=O)Nc1cccc3ccccc13)O2	0.4	.	6.6	-0.0067
CCOC(=O)c1c(NC(=O)CSc2nccc(C)n2)sc(C)c1C	-3.5	.	30.3	.
COc1ccc(NC(=O)N(C)C[C@@H]2Oc3ccc(NC(=O)NC4CCCCC4)cc3C(=O)N([C@H](C)CO)C[C@H]2C)cc1	0.1	10.9	-9.1	-0.253
O=C(COc1ccccc1Cl)Nc1ccc2oc(-c3ccccc3Br)nc2c1	0.2	.	-6.9	.
c1ccc([C@H]2CN3CCSC3=N2)cc1	.	37.5	2.4	0.268
Cc1noc(C)c1S(=O)(=O)N(C)C[C@H]1Oc2ccc(NS(C)(=O)=O)cc2CC(=O)N([C@@H](C)CO)C[C@H]1C	0.4	.	-10.7	0.302
C[C@H](CO)N1C[C@H](C)[C@H](CN(C)C(=O)NC2CCCCC2)Oc2c(NC(=O)NC3CCCCC3)cccc2C1=O	.	29.9	7.5	-0.645
CC(=O)O[C@H]1[C@H](Oc2cc(O)cc(O)c2C(=O)c2cccc(O)c2)O[C@H](CO)[C@@H](OC(=O)c2ccccc2)[C@@H]1O	-0.5	-10.1	-20.3	-0.105
CN1CCC(OC(c2ccccc2)c2ccccc2)CC1	.	19.6	6.2	0.089
Cn1nccc1C(=O)Nc1ccc(Cl)cc1	0.1	-81.2	-16.0	0.319
Cn1c(SCC(=O)c2ccc(F)cc2)nnc1-c1cccnc1	0.5	.	-35.0	.
C[C@@H]1CN([C@@H](C)CO)C(=O)Cc2cc(NC(=O)CCC(F)(F)F)ccc2O[C@@H]1CN(C)Cc1ccncc1	-7.2	-20.9	-5.1	0.217
Cc1cc(C(=O)Nc2cccc3c2O[C@@H](CN(C)S(=O)(=O)c2c(C)noc2C)[C@@H](C)CN([C@@H](C)CO)C3=O)n(C)n1	.	-18.6	-14.1	-0.367
O=[N+]([O-])c1ccc(S(=O)(=O)CC(CN2CCOCC2)N2CCOCC2)cc1 (stereo not given)	-10.1	.	-4.6	.
C[C@H](CO)N1C[C@H](C)[C@@H](CN(C)S(=O)(=O)c2cccs2)Oc2ccc(NC(=O)Nc3ccc4c(c3)OCO4)cc2C1=O	.	-1.2	-2.0	-0.307
COc1ccc(NC(=O)N(C)C[C@@H]2Oc3ccc(NC(=O)CCCCCC(=O)Nc4ccccc4N)cc3CC(=O)N([C@@H](C)CO)C[C@@H]2C)cc1	-0.1	.	-33.7	-3.51
O=c1cc(-c2ccccc2)oc2cc(O)cc(O)c12	-2.1	-8.8	1.5	1.7
CCOc1ccc(NC(=O)C(C)Sc2nc3ccccc3s2)cc1 (stereo not given)	0.3	.	29.1	.

An excerpt; the hit share may differ from the screen's.
